miR-21 reporter: raises the signal of a miR-21 reporter | HeLa miR-21 FLuc reporter, luciferase, 48 h | Potency, µM (top dose mostly 38.3 µM), inactives show at the highest dose reporter change, positive = more light | 340,000 tested, under 10 active; active = well fitted rising curve with a large enough effect; inconclusive = small, poorly fitted or top-dose-only effect; inactive = no such curve, though single readings can be large or run the other way;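 also: % of control where 0% means no effect; miR-21 action dims this reporter so a rising signal means less miR-21 action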
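HeLa miR-21-FLuc reporter line, endogenous miR-21; 2000 cells/well in DMEM/10% FBS; compound titration up to ~40uM final, 48 h, 37 degree Celsius; luciferase detection reagent, 15 min lysis, CCD luminescence.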
Rango release inh: inhibition of RanGTP-driven Rango-importin beta dissociation; Biochemical FRET Rango-importin beta, RanGTP-induced dissociation; O95149+P62826; actives 0.071% (n = 340,000); Potency, µM (doses to about 46.1 µM), without a hit: top-dose activity change, negative = inhibition; active means falling FRET ratio curve, often poorly fitted, with flat reads before Ran was added; inconclusive means other falling curves, or compound fluorescence or quenching; inactive means flat or rising ratio curve;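 also: potency is read from the fitted curve at half-maximal effect; % of control where 0% means no effect; nearly all actives have a fitted effect of over 45% in size; -100% = wells without RanGTP and RCC1; the record marks most hits as doubtful in a second field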
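Compounds preincubate 5 min with complex of recombinant Rango and importin beta in PBS with 1 mM DTT. Ran (0.6 uM) loaded with 2 mM GTP plus 0.2 uM RCC1 starts dissociation; FRET is recorded 45 min later.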
Rango-impB inh: inhibitors of Rango-importin beta complex formation. actives 0.031% (n = 340,000). Q14974. Potency, µM (titrated, usually from 92.2 µM), inactives show at the top dose inhibition of complex formation. AID 540263. Rango CFP/YFP FRET sensor + importin beta, 45 min; active = rising FRET ratio curve, often small or poorly fitted; inconclusive = mostly compound fluorescence or quenching in the first reads; inactive = flat curves in all reads;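 also: potency is read from the fitted curve at half-maximal effect; 0% = DMSO wells and 100% = buffer wells lacking importin beta; nearly all actives have a fitted effect of over 15% in size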
Target sequence (Q14974 whole entry, looked up): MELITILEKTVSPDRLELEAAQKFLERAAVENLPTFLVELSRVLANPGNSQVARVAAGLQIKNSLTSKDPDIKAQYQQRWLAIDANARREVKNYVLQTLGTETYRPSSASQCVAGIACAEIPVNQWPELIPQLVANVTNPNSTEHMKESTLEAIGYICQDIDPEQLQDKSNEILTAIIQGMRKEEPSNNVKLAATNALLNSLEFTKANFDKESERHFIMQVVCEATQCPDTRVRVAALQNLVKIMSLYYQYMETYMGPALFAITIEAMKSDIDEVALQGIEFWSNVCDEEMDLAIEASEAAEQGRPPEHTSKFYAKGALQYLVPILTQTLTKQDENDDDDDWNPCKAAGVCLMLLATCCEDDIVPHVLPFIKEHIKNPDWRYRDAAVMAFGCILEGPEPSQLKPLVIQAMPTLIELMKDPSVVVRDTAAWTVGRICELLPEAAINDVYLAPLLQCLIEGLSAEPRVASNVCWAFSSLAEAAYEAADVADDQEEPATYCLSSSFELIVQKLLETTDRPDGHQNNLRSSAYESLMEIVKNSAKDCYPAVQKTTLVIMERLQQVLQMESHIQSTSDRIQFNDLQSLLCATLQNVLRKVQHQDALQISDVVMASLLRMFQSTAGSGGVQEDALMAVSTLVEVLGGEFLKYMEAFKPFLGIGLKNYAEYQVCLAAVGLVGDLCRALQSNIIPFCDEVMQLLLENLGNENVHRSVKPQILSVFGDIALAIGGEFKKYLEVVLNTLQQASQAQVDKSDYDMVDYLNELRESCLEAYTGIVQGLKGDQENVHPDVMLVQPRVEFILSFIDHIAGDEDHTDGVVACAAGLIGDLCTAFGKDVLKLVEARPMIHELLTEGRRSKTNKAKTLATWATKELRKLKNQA
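Inhibition scored from the CFP 486 nm/YFP 530 nm FRET ratio 45 min after adding 0.125 microM importin beta to 50 nM Rango biosensor preincubated 5 min with compound (room temperature, PBS with DTT, Tween-20, BSA). No-importin wells as positive control.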
GLA inh pH 4.5: blocks human alpha-galactosidase A at pH 4.5 | P06280 | purified enzyme, 4-MU-alpha-Gal fluorescence, pH 4.5 | activity change, negative = inhibition, % at 105 µM | 230,000 tested, under 10 active | AID 1467; inconclusive = small, poorly fitted or top-dose-only inhibition, or a rising curve; inactive = flat fitted curve, though single readings scatter; no compound was filed as active;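 also: 0% = full activity with enzyme and -100% = basal without enzyme; dose as in the result columns while the protocol names 77 µM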
* marks the source's active call; other numbers are inactive results; ? = inconclusive; . = not tested or not shown; & = joins results of further samples; [ ] = remark or other dose. Some of the compounds tested, so the mix of outcomes need not match the whole.

The line under a structure holds: miR-21 reporter | Rango release inh | Rango-impB inh | GLA inh pH 4.5
- COc1ccc(Nc2nc(Cl)nc(Nc3ccc(OC)cc3OC)n2)c(OC)c1
    -1% | 9% | 0.1% | -18
- Cc1ccccc1OCC(=O)N(Cc1nnc(-c2ccc(Cl)cc2)o1)C(C)C
    . | -4% | 0.6% | .
- CCOC(=O)C1CCN(C(=O)c2oc3ccc4c(c3c2C)C(O)CC2(CCCCC2)O4)CC1 (centres undefined)
    14% | 24% | 1.6% | .
- CCNC(=S)N1CCN(CCN=CC2=C(O)CC(c3cccs3)CC2=O)CC1 (centres undefined)
    1% | -6% | -1.7% | 4
- COc1ccc(NC(=O)CSc2nc3c(sc4ccccc43)c(=O)n2CCCN2CCCC2)cc1
    -12% | 1% | -3.2% | .
- C=CCc1c(OC(C)=O)c2ccccc2n(C)c1=O
    2% | -7% | -2.0% | -16
- Cc1sc(NC(=O)c2ccco2)c(CN2CCN(Cc3ccccc3)CC2)c1C
    23% | -1% | -0.5% | -19
- Cc1ccc(-n2c(SCC(=O)N3CCCCC3)nc(O)c(Cc3ccccc3)c2=O)cc1
    0% | 1% | -0.4% | .
- CCOc1ncccc1C(=O)N(CC)CC(=O)NCc1ccc(F)cc1
    9% | -9% | -2.8% | .
- CC(C)Cc1nn2c(=O)cc(CSCC(=O)Nc3ccccc3F)nc2s1
    -3% | -1% | -1.4% | .
- CCCC(=O)Nc1cc(-c2cn3cccnc3n2)ccc1OC
    -2% | -1% | -2.5% | 3
- C#CCSc1nnc(-c2ccc(O)cc2)o1
    -52% | -19% | -2.4% | -3
- O=C(c1ccccc1)n1ccc2ccccc21
    -21% | 6% | -0.5% | 0
- COC1=CC(=O)CC(C)C12Oc1c(Cl)c(OC)cc(OC)c1C2=O (centres undefined)
    9% | 4% | -0.3% | 2
- Cc1cc(C)n2nc(SCc3cc(=O)oc4cc(C)c(C)cc34)nc2n1
    2% | . | . | 7

Molecules listed so far that have a carbonyl joined to an NH by a bond outside any ring, in the order listed:
The line under a structure holds: miR-21 reporter | Rango release inh | Rango-impB inh | GLA inh pH 4.5
- COc1ccc(NC(=O)CSc2nc3c(sc4ccccc43)c(=O)n2CCCN2CCCC2)cc1
    -12% | 1% | -3.2% | .
- Cc1sc(NC(=O)c2ccco2)c(CN2CCN(Cc3ccccc3)CC2)c1C
    23% | -1% | -0.5% | -19
- CCOc1ncccc1C(=O)N(CC)CC(=O)NCc1ccc(F)cc1
    9% | -9% | -2.8% | .
- CC(C)Cc1nn2c(=O)cc(CSCC(=O)Nc3ccccc3F)nc2s1
    -3% | -1% | -1.4% | .
- CCCC(=O)Nc1cc(-c2cn3cccnc3n2)ccc1OC
    -2% | -1% | -2.5% | 3

The main list resumes; the 3 compounds before the break are reprinted first.
The line under a structure holds: miR-21 reporter | Rango release inh | Rango-impB inh | GLA inh pH 4.5
- O=C(c1ccccc1)n1ccc2ccccc21
    -21% | 6% | -0.5% | 0
- COC1=CC(=O)CC(C)C12Oc1c(Cl)c(OC)cc(OC)c1C2=O (centres undefined)
    9% | 4% | -0.3% | 2
- Cc1cc(C)n2nc(SCc3cc(=O)oc4cc(C)c(C)cc34)nc2n1
    2% | . | . | 7
- CCCC(=O)Nc1cc2c3c(c1)CC(=O)N3CCC2
    1% | 14% | -1.7% | .
- O=C(Cn1nnc(-c2cc(C(F)(F)F)cc(C(F)(F)F)c2)n1)NNC(=S)Nc1ccc(Cl)cc1
    6% | 0% | 0.4% | ?
- O=C(c1nc2ccccn2c1CN1CCN(c2ccccc2O)CC1)N1CCCC1
    5% | 4% | 0.3% | 2
- O=C(Cn1c(=O)sc2ccccc21)NCc1ccco1
    -24% | 1% | -1.9% | 5
- COc1ccc(N2C(N)=NC(N)=NC23CCCC3)cc1
    -3% | -7% | 1.4% | 2
- COCCn1c(-c2cccs2)nc2c(c(=O)c3ccccc3n2C)c1=O
    -6% | . | . | 3
- CCN1C(=O)c2cccc3c(NC(=O)C(C)(C)C)ccc1c23
    -4% | -4% | -0.1% | -6
- O=C(c1ccco1)N1N=C(c2ccncc2)CC1(O)C(F)(F)F (centres undefined)
    6% | -12% | 7.5% | -2
- Cc1ccc(C(=O)OCC(=O)N2CCc3ccccc32)cc1
    -27% | ? | 1.6% | 9
- O=C(O)C(Oc1ccc(Cl)cc1)c1ccc(Cl)cc1 (centres undefined)
    . | -1% | -0.3% | .
- CCCCOc1ccc(N2C(=O)CC(N(O)c3ccccc3)C2=O)cc1 (centres undefined)
    -10% | -10% | 7.1% | -4
- Nc1nc(N2CCN(c3ccccc3)CC2)n[nH]1
    1% | 9% | 0.0% | -3
- Cc1ccc(Nc2c(-c3cccnc3)nc3ccc(Br)cn23)cc1
    -2%&0% | 12% | 1.6% | 7[21.1 µM]
- OCCNCCOCCOc1ccccc1-c1ccccc1
    -1% | -11% | 6.7% | -11
- NC(=O)CC[C@H](NC(=O)c1ccc(F)cc1)C(=O)N1CCN(Cc2ccc3c(c2)OCO3)CC1
    . | -2% | -3.1% | .

Next part:
The line under a structure holds: miR-21 reporter | Rango release inh | Rango-impB inh | GLA inh pH 4.5
- CC(CC(=O)O)CC(=O)Nc1cccc([N+](=O)[O-])c1 (centres undefined)
    -2% | -23% | -0.3% | 0
- CCc1c(C)nc2nc(SCc3ccccc3)[nH]n2c1=O
    -3% | 1% | 1.6% | .
- CC(Oc1ccc(Cl)cc1Cl)C(=O)Nc1cccnc1 (centres undefined)
    -15% | 5% | -0.3% | -6
- CCOC(=O)/C(C#N)=C/c1cccc([N+](=O)[O-])c1
    -1% | 5% | -2.7% | -18
- COc1ccc([C@@H]2C[C@H]3CN(Cc4ccccc4OC)C(=O)[C@]34CCCN24)cc1C
    -2% | -3% | 0.7% | -3
- CCCCCc1ccc(-c2cn(CCCOCc3ccccc3)nn2)cc1
    6% | 4% | -1.4% | .
- CN(C(=O)CSc1nc(-c2ccc(C(C)(C)C)cc2)c(C#N)c(=O)[nH]1)C1CCCCC1
    -5% | 1% | -1.5% | .
- Cc1ccc(Cn2c(CCNc3nc(-c4ccc(Cl)c([N+](=O)[O-])c4)cs3)nc3cc(C(=O)NCCCO)ccc32)cc1
    . | 4% | 0.2% | .
- Cn1c(NCc2ccco2)nc2c1c(=O)n(Cc1ccc(Cl)c(Cl)c1)c(=O)n2C
    -2% | 1% | 2.7% | 7
- O=C(c1ccco1)N1CCN(C(=O)c2cc(Cl)nc3ccccc23)CC1
    . | -23% | -1.2% | .
- O=C(Nc1cccc(S(=O)(=O)N2CCCCC2)c1)c1ccc(S(=O)(=O)C(F)F)cc1
    27% | 11% | 1.7% | -10
- CC(C)OC(=O)CSc1nc(N2CCOCC2)c2c(c1C#N)CC(C)(C)OC2
    -6% | -12% | 1.1% | .
- CC(OC(=O)C1CC=CCC1C(N)=O)C(Cl)=C(Cl)Cl (centres undefined)
    -1% | 0% | 2.6% | 0
- O=C(Cn1cnc2c(NC(=O)OCc3ccccc3)ncnc21)NCCN1CCOCC1
    . | -10% | 0.0% | .
- COc1ccc2c(c1)c(=O)oc1c(C)c(OC(C)C(=O)N[C@@H](Cc3c[nH]c4ccc(O)cc34)C(=O)O)ccc12 (some centres undefined)
    -1% | 12% | -0.5% | .

The list goes on:
The line under a structure holds: miR-21 reporter | Rango release inh | Rango-impB inh | GLA inh pH 4.5
- CC(CCc1ccccc1)NC(=O)/C=C/c1ccc(Cl)cc1 (centres undefined)
    -7% | -9% | -1.7% | 11
- COc1ccc(NS(=O)(=O)c2csc(C(=O)N3CCCC3)c2)c(OC)c1
    6% | 0% | 4.3% | .
- CS(=O)(=O)N1CCN(c2ccccc2NC(=O)Cc2ccccc2)CC1
    -24% | -3% | ? | 2
- CCN(CC)CCNc1nc(-c2ccc(OC(F)F)cc2)c(C)s1
    1% | 11% | 5.5% | 8
- COc1ccc(C2N(C(C)=O)CCCN2S(=O)(=O)c2ccc(C)cc2)cc1 (centres undefined)
    0% | 3% | 0.2% | .
- Cc1sc2nc[nH]c(=S)c2c1-c1ccccc1
    4% | 15% | -2.3% | 9
- O=C1NC2(CCCCCC2)C(=O)N1Cc1ccc(Br)cc1
    0% | 16% | 0.3% | .
- CCC(C)[C@H](NC(=O)NCc1ccccc1)C(=O)O (some centres undefined)
    0% | 0% | -2.6% | -7
- O=C1c2ccccc2C(=O)N1CSc1nnc(Nc2ccccc2F)s1
    -40% | -1% | -3.4% | 7
- CCN(CC(=O)NCc1ccc(F)cc1)S(=O)(=O)c1ccc(C)cc1
    1% | 3% | -1.6% | .
- O=C(NCc1nc(-c2ccc(C(F)(F)F)cc2)no1)Nc1ccc(F)cc1F
    3% | 14% | 0.6% | -6
- CCOC(=O)Cc1csc(NC(=O)Cc2ccccc2)n1
    -1% | 24% | -0.2% | -18
- O=S(=O)(Nc1ccc(-c2cn3cccnc3n2)cc1)c1ccccc1
    -14% | 16% | -1.9% | 0
- CC(C)[C@H](NS(=O)(=O)c1ccccc1)C(=O)OCC(=O)NCc1ccc2c(c1)OCO2
    . | 4% | -2.4% | .
- Clc1ccccc1OCCCCN1CCNCC1
    -9% | -9% | 5.3% | .

Next part.
The line under a structure holds: miR-21 reporter | Rango release inh | Rango-impB inh | GLA inh pH 4.5
- CSc1ccccc1NC(=O)COc1ccc(Cl)cc1
    -50% | 5% | 4.7% | -7
- Cc1ccc(NS(=O)(=O)c2ccc3[nH]c(=O)oc3c2)cc1Cl
    . | -10% | -1.7% | .
- Nc1nc2c(ncn2[C@H]2C[C@H](O)[C@@H](CO)O2)c(=O)[nH]1
    . | -21% | -1.1% | .
- Cc1c(C(=O)NCc2ccco2)oc2ccc(Br)cc12
    . | -2% | -2.7% | .
- CCCCC(=O)Nc1sc2c(c1C(=O)OCC)CCC(C=O)=C2Cl
    -4% | . | . | 8
- Cc1ccc2oc(C(=O)N(Cc3ccc(N(C)C)cc3)CC3CCCO3)c(C)c2c1 (centres undefined)
    -9%&24% | -22% | 6.1% | .
- Cn1c(=O)c2nnn(/N=C(\c3ccccc3)C3CC3)c2n(C)c1=O
    -2% | -6% | -2.1% | 1
- CCc1ccc(N2C(=O)/C(=C/c3cccs3)N(CC(=O)OC)C2=S)cc1
    0% | ? | ? | 0
- C/C(CCC(C)C)=N\Nc1ccc(S(N)(=O)=O)cc1[N+](=O)[O-]
    -1% | 11% | -6.2% | -13
- CCOC(=O)Cc1csc(NC(=O)c2ccc(Cl)nc2)n1
    21% | -17% | ? | -1
- Cc1noc(/C=C/c2ccc(-c3ccccc3Cl)o2)c1[N+](=O)[O-]
    -8% | ? | ? | 0
- O=C(O)c1cccc(NS(=O)(=O)/C=C/c2ccccc2)c1
    1% | -15% | -2.7% | 3
- O=C(NCCN1CCCC1)c1cc(-c2ccncc2)nc2ccc(S(=O)(=O)N3CCOCC3)cc12
    -7% | -15% | -4.0% | -5
- Cc1ccc(S(=O)(=O)NN2C(=O)/C(=C/c3cccc(F)c3)SC2=S)cc1
    1% | -5% | 1.2% | .
- CCCOc1c(Br)cc(C(=O)OCC(=O)NC2CC2)cc1OC
    . | 3% | -0.4% | .

Further results follow.
The line under a structure holds: miR-21 reporter | Rango release inh | Rango-impB inh | GLA inh pH 4.5
- Cc1ccc(-n2cc(CNC(C)c3cnn(C)c3)c(-c3ccc(F)cc3)n2)cc1 (centres undefined)
    10% | -17% | 1.8% | -8
- CCOC(=O)CN1N=C(/C=C/c2ccc(C)cc2)CCC1=O
    -29% | 6% | 0.4% | -19
- Cc1cccc(/C=N/NC(=O)C(C)Nc2cccc3ccccc23)n1 (centres undefined)
    -35% | -14% | -1.2% | 3
- CCCCOc1ccc(NS(=O)(=O)c2ccc(-n3cnnn3)cc2)cc1
    4% | ? | -5.1% | .
- C=CCSc1nc2sc3c(c2c(=O)n1-c1ccc(C)cc1)CCN(C)C3
    0% | -11% | -8.9% | .
- CC1SC(c2ccc(Cl)cc2Cl)NC1=O (centres undefined)
    -3% | -14% | -2.2% | 4
- COC(=O)Cc1ccc(NC(=S)NC2CC2)cc1
    -1% | 16% | 3.0% | -6
- CN(CC(=O)O/N=C(\N)c1ccc([N+](=O)[O-])cc1)S(=O)(=O)c1ccccc1
    -2% | 11% | 0.2% | 0
- C=CCN1C(=O)CSc2ccc(C(=O)OCC)cc21
    -12% | -13% | -0.3% | -3
